Screening results from PubChem BioAssay.
gsp antag: antagonizes gsp, the McCune-Albright syndrome mutation; 340,000 compounds, 0.4% hits; gsp-mutant cells, cAMP HTRF, 30 min; control for the full effect not named in the record; Potency, µM (top dose mostly 76.9 µM), inactives show top-dose activity change, negative = inhibition, actives largely listed as inhibitors; active = falling curve of any shape with a large fitted effect; inconclusive = falling curve, mostly with a smaller effect; inactive = flat or rising curve; cell line not stated here;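 also: intracellular cAMP measured with PDE inhibitor Ro 20-1724 present during compound exposure; potency is read from the fitted curve at half-maximal effect; % is scaled to controls: 0 for no effect and ±100 for the full control effect; nearly all actives have a fitted effect of over 65% in size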
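Measurement of cellular cAMP by homogeneous time-resolved fluorescence following a 30 min compound exposure at 37C. The PDE inhibitor […] was present throughout; the assay buffer was DPBS with 0.05% BSA and 0.005% Tween 20.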
D2 PAM: positive allosteric modulators of human D2 dopamine receptor; potentiation, % (test concentration not listed); 360,000 compounds, 0.23% hits; AID 624464; P14416; DiscoveRx D2 beta-arrestin cells, luminescence, 90 min; 100% = 57 uM dopamine signal; active = potentiation of 50% or more; inconclusive = 30% to 50%; inactive = 30% or less;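 also: compound concentration not given in the record; tested on top of an EC20 dose of dopamine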
Target sequence (P14416 whole entry, looked up): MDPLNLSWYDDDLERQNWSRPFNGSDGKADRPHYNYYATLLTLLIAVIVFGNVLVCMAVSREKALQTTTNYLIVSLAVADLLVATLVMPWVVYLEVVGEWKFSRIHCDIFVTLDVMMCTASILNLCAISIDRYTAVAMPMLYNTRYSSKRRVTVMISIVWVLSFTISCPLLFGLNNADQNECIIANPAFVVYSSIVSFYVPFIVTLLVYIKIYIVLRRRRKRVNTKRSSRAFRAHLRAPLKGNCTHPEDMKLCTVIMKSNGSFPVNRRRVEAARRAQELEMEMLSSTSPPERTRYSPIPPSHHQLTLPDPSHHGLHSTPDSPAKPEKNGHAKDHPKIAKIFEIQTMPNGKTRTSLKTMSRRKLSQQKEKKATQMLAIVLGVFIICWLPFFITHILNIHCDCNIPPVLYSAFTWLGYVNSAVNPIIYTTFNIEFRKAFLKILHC
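PathHunter D2 cells, attached overnight at 37 deg C, received compound in DMSO plus dopamine at EC20 (50 nM final) for 90 min at 37 deg C. Beta-arrestin recruitment was read as luminescence after 1 h with detection reagent at ambient temperature.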
gsp agonist: agonists of gsp mutant (McCune-Albright syndrome). gsp mutant cells, cAMP HTRF, 30 min; control for the full effect not named in the record. Potency, µM (highest dose often 76.9 µM), without a hit: at the top dose activation (cAMP increase), most hits filed as activators. 340,000 compounds, 0.13% hits; active = well fitted activation curve with a large enough effect; inconclusive = small, poorly fitted or top-dose-only effect, or another doubt; inactive = no such curve, though single readings can be large or run the other way; cell line not stated here;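 also: phosphodiesterase inhibitor Ro 20-1724 added with compounds to block cAMP breakdown; potency is read from the fitted curve at half-maximal effect; nearly all actives have a fitted effect of over 60% in size; about a fifth of the inactives were tested at one dose only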
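Cells in DMEM/10% FBS with G418 were pretreated with compounds in DMSO plus […] (300 uM stock) for 30 min at 37C. cAMP was measured by HTRF (cAMP-d2 plus anti-cAMP antibody-K) after 30 min at room temperature.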
D2 ag: agonists of human D2 dopamine receptor (beta-arrestin). DiscoveRx PathHunter D2 beta-arrestin, luminescence, 90 min; 100% = 57 uM dopamine signal. activation, % (concentration not given with the values). P14416. 360,000 compounds, 0.084% hits. AID 624465; in the data active = activation above about 40%; inconclusive = about 15% to 40%; inactive = below about 15%; also: the text of the record calls up to 30% inactive
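Agonist mode: compounds alone added to overnight-plated D2 PathHunter cells for 90 min at 37 C, with 57 uM final dopamine (EC100) defining full response. Beta-arrestin recruitment detected by chemiluminescent reagent, read after 1 h at ambient temperature.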
CtBP-E1A blk: blocks the CtBP interaction with E1A; AlphaScreen GST-E1A/His-CtBP binding, 1536-well; active compounds read low; control for the full effect not named in the record; activity change, % (no concentration beside the values); 340,000 compounds, 0.49% hits; AID 651724; in the data active means activity change below about -65%; inconclusive means about -30% to -65%; inactive means above about -30%; also: % is scaled to controls: 0 for no effect and ±100 for the full control effect
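Steps: dispense buffer (Tris pH 8.0, NaCl 300 mM, TCEP 1 mM, BSA, Tween 20); add 5X protein mix (GST-E1A, His-CtBP, 125 nM each); pin 23 nL compound; 2 h at 37 °C, dark; add 5X beads (50 ug/mL); 1 h; read.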
Six1-Eya2 inh: blocks human Six1 binding to Eya2. Q15475+O00167. AlphaScreen GST-Six1/His-Eya2 binding, biochemical; active compounds read low; control for the full effect not named in the record. activity change, % (concentration not given with the values). 360,000 compounds, 0.56% hits. AID 651725; in the data active = activity change below about -65%; inconclusive = about -30% to -65%; inactive = above about -30%; also: % is scaled to controls: 0 for no effect and ±100 for the full control effect
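Homogeneous AlphaScreen proximity assay pairing GST-Six1 with His-tagged Eya2 (added as 5X mix: 250 nM and 500 nM) in 50 mM Tris pH 8.0, 300 mM NaCl, 1 mM TCEP. Glutathione donor and nickel acceptor beads; 1 h, 37 °C, dark.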
The depositor's hits bear a star; ? = inconclusive; . = not tested or not shown; & = joins results of further samples; [ ] = dose if it differs, or a comment.

gsp antag | D2 PAM | gsp agonist | D2 ag | CtBP-E1A blk | Six1-Eya2 inh | SMILES
18% | -51 | -1% | 0.6 | 113 | -10 | O=C(CNC(=O)c1ccc(Cl)cc1)NC1CCCCC1
-8% | -2 | -33%[inhibitor] | -3.3 | -16 | -18 | COc1ccc(-c2nnc(NC(=O)c3ccccc3C)o2)cc1
5% | -2 | ? | -4.6 | 2 | -1 | O=S(=O)(c1cc(F)ccc1F)N1CCN(c2ccccn2)CC1
11% | 3 | -7% | -1.7 | . | -4 | O=C(CN1C(=O)/C(=C/c2ccco2)SC1=S)Nc1ccc(O)c(C(=O)O)c1
6% | 2 | . | -1.0 | -22 | -10 | O=C1NC[C@@H](Cc2cccc3ccccc23)N(CC2(c3ccccc3)CC2)C1=O
-2% | -3 | 18% | -5.0 | 6 | -3 | Cc1occc1C(=O)Nc1c(F)c(F)c(F)c(F)c1F
? | 82* | 3% | 2.6 | . | -3 | O=C(Nc1ccccc1C(=O)O)c1cccc(NS(=O)(=O)c2ccc(Br)cc2)c1
? | 5 | 6% | -2.6 | 11 | 16 | O=C(Nc1cccc(Cl)c1)Nc1ccc(Br)cc1F
-23% | 2 | 5% | 2.2 | 1 | -3 | Nc1nnc(-c2cn(-c3ccccc3)nc2-c2ccccc2)o1
4% | -1 | -9%[15.4 µM] | 3.2 | 0 | 6 | CCOC(=O)N1CCN(C(=O)COc2cccc3c2CCN(CC)C3=O)CC1
-25% | -28 | 18% | 3.0 | -2 | -8 | C1=C(CCNc2ncnc3c2[nH]c2ccccc23)CCCC1
3% | 10 | 17% | 1.0 | 4 | -15 | COc1cc(C2CC(=O)Oc3c2c(=O)n(C)c2ccccc32)ccc1O (configuration not stated)
-9% | -3 | -6% | -2.7 | 3 | -7 | CC(C)CCNC(=O)C1CCN(c2nnc(-n3cccc3)s2)CC1
-2% | -10 | 8% | -3.3 | 0 | -6 | COc1ccc(C)cc1N(C(=O)c1cccc(F)c1)c1nc2ccccc2s1
14% | -10 | -34%[inhibitor] | -5.5 | -11 | 3 | CN(CC1CCCN(CCc2ccc(F)cc2)C1)C(=O)CCC(F)(F)F (configuration not stated)
-1% | 8 | 3% | 1.0 | -5 | -4 | Cc1ccc(N(Cc2ccccc2)C(=O)c2cc(S(=O)(=O)N3CCOCC3)ccc2C)cc1
-13% | -1 | -80%[inhibitor] | -0.5 | . | -3 | COc1ccc(/C=N/Nc2nonc2N)c(OC)c1
-1% | -2 | ? | -2.2 | 10 | -5 | CC(C)SC1=NC(C)(C)C=C(/C=C/c2c(Cl)cccc2Cl)N1
-1% | -4 | -77%[inhibitor] | -6.0 | 1 | 3 | Cc1ccc(NC(=O)c2ccc(CN3CC(=O)N4CCCCC4C3=O)cc2)c(C)c1 (configuration not stated)
8% | -20 | ? | 5.5 | 2 | 1 | Cc1cc(Cl)c(OCCCNC2CCCC2)c(Br)c1
? | -7 | -9%[15.4 µM] | -0.5 | 0 | -10 | O=C(NCCc1ccccc1)c1ccc2c(=O)[nH]c3c(C(=O)NCC4CCCO4)sc(=S)n3c2c1 (configuration not stated)
-4% | 8 | 1% | -1.1 | 5 | 0 | O=S(=O)(NCc1ccc2c(c1)OCO2)c1cccc(S(=O)(=O)N2CCOCC2)c1
8% | -9 | ? | -1.8 | ? | -19 | Cc1nc2oc3c(NCc4ccccn4)ncnc3c2c2c1COC(C)(C)C2
-11% | 0 | -5% | 6.1 | -25 | -23 | Cc1cc(C(=O)N/N=C/c2cc(Br)c(Br)o2)n[nH]1
? | -5 | ? | -0.8 | . | -9 | NC(=O)c1c(NC(=O)c2ccncc2)sc2c1CCCC2

Brought forward from above: 2 entries, followed by the next part.
gsp antag | D2 PAM | gsp agonist | D2 ag | CtBP-E1A blk | Six1-Eya2 inh | SMILES
-11% | 0 | -5% | 6.1 | -25 | -23 | Cc1cc(C(=O)N/N=C/c2cc(Br)c(Br)o2)n[nH]1
? | -5 | ? | -0.8 | . | -9 | NC(=O)c1c(NC(=O)c2ccncc2)sc2c1CCCC2
16% | -11 | -6% | -4.7 | -20 | -3 | CC1(C)CC(=O)C([N+](=O)[O-])=C(NCCCO)C1
-21% | -2 | -2% | 4.2 | -5 | -1 | CCCCc1nc2cc(C(=O)N3CCN(c4nc(C)cnc4C)CC3)ccc2o1
. | -12 | . | -9.2 | 1 | 1 | CCc1nc2c(OCc3ccccc3)cccn2c1N(C)C(=O)C(C)C
? | -33 | . | -1.2 | -3 | -7 | O=C(OCC1OC(n2ncc(=O)[nH]c2=O)C(OC(=O)c2ccccc2)C1OC(=O)c1ccccc1)c1ccccc1 (configuration not stated)
-1% | 0 | -1% | 4.3 | 0 | 2 | O=C(Nc1cccnc1)Nc1cc(Cl)cc(Cl)c1
-4% | -6 | 0% | -0.8 | 4 | 3 | CC(C)c1cc(C(=O)NCc2cccnc2)no1
4% | -10 | 1% | -3.2 | 4 | -1 | O=C(Nc1ccc(O)cc1)c1ccc2c(c1)C(=O)N(N1C(=O)c3ccccc3C1=O)C2=O
5% | 2 | 1% | -3.4 | 6 | 13 | Nc1nc(CSc2nnnn2-c2ccc(Cl)cc2)nc(N2CCOCC2)n1
6% | -10 | 0% | -1.2 | 5 | 6 | CC(=O)CCCC(NS(=O)(=O)CCC(Cl)(Cl)Cl)c1ccccc1 (configuration not stated)
5% | -23 | 4% | -7.4 | 38 | 21 | Cn1cnc([N+](=O)[O-])c1Sc1ncccc1N
1% | 6 | ? | 3.4 | -4 | 8 | O=C(COC(=O)CCN1C(=O)c2ccccc2C1=O)Nc1ccccc1[N+](=O)[O-]
3% | -17 | 20% | -3.9 | 1 | -1 | COC(=O)C(C(=O)Nc1ccc(OC)cc1)C1CCCCCC1 (configuration not stated)
4% | 1 | -13% | -2.6 | 2 | -1 | O=C(CSc1nnc(-c2ccncc2)n1C1CCCCC1)Nc1ccccc1
11% | 3 | -40%[inhibitor] | -2.4 | 11 | 0 | CCN(CC(=O)Nc1c(F)cccc1F)C(=O)CN1C(=O)c2ccccc2C1=O
13% | 10 | -42% | -1.9 | 2 | 0 | CC1=CC(C)C2C(=O)N(CCCN(C)C)C(=O)C2C1 (configuration not stated)
0% | -11 | -4% | -3.1 | -2 | -2 | COc1cc(Cl)c(S(=O)(=O)NCCN2CCOCC2)cc1Cl
3% | 0 | -44%[inhibitor] | 0.3 | -2 | -1 | O=C(CCN1C(=O)S/C(=C\c2ccccc2)C1=O)N1CCOCC1
0% | -6 | -6% | -3.4 | 6 | 0 | CC12CCC(C(=O)Nc3ccc4c(c3)OCCO4)(OC1=O)C2(C)C (configuration not stated)
5% | -28 | -2% | -3.4 | 7 | -9 | Cc1cc(C(=O)NC2CCCCC2)c(C)n1-c1ccc(F)cc1
. | -16 | . | 4.3 | -17 | -8 | O=C(NCc1ccco1)c1ccc(-c2ccc(F)c(F)c2)c2ccoc12
16% | -20 | 28% | -8.2 | -3 | -11 | CCOCCCNC(=O)c1cc2c(=O)n(CC)c3ccccc3c2s1
-5% | 2 | 32% | -1.0 | -10 | -6 | COc1cccc(-c2nnc3sc(-c4ccccn4)nn23)c1
-6% | -27 | -9% | -3.6 | -3 | -16 | Cc1ccc(/C=N/NC(=O)C2CCN(Cc3ccc(F)cc3Cl)CC2)o1
3% | -16 | -16% | -6.2 | -2 | 0 | COc1cc(C2NC(=O)NC(C)=C2C(=O)OCc2ccc(C)cc2)cc(OC)c1OC (configuration not stated)
-6% | -28 | -20% | -3.0 | -15 | -21 | Cc1ccc(OCCNc2cc(N3CCN(CCO)CC3)ccc2[N+](=O)[O-])cc1C

Profiles from above. Order of screens: gsp antag | D2 PAM | gsp agonist | D2 ag | CtBP-E1A blk | Six1-Eya2 inh
`CC1=CC(C)C2C(=O)N(CCCN(C)C)C(=O)C2C1` (configuration not stated) is entered as 13% | 10 | -42% | -1.9 | 2 | 0
`CCCCc1nc2cc(C(=O)N3CCN(c4nc(C)cnc4C)CC3)ccc2o1` is entered as -21% | -2 | -2% | 4.2 | -5 | -1

(list continues)
gsp antag | D2 PAM | gsp agonist | D2 ag | CtBP-E1A blk | Six1-Eya2 inh | SMILES
9% | 0 | -21% | -1.3 | -3 | 1 | CCOC(=O)C1=NOC(CNC(=O)c2ccccc2Cl)C1 (configuration not stated)
-7% | -4 | ? | 0.8 | 0 | 4 | CCCc1cnc(N2CCN(C(=O)c3ccc(F)cc3)CC2)nc1
1% | -11 | ? | -2.8 | 0 | -2 | CCn1nccc1C(=O)Nc1nccs1
21% | -4 | -12%[15.4 µM] | -3.2 | 5 | -16 | Cc1cc(C)nc(-n2ncc3c2CC(C)CC3=O)n1 (configuration not stated)
5%&4%&-2% | -27&-21&-8 | . | -1.7&-5.6&-5.0 | 5&-1&6 | 1&0&-3 | CN(C)CCC(c1ccc(Br)cc1)c1ccccn1 (configuration not stated)
-2% | -1 | 13% | -0.7 | -2 | -12 | COCCNC(=O)CCc1c(C)nc2nc(-c3cc(OC)cc(OC)c3)nn2c1C
4% | 1 | -3% | 0.3 | 5 | 8 | C=CCNC(=O)CCCc1ccccc1
0% | 5 | 10% | 1.0 | . | 2 | Cc1cccc(N2C(=O)C3CCCN3C2=S)c1C (configuration not stated)
. | -18 | . | -4.6 | -7 | 3 | O=C(NC(c1ccc(Cl)cc1)c1cnccn1)C1CCN(CCCc2ccccc2)CC1 (configuration not stated)
-5% | -4 | -23% | -4.7 | -3 | -13 | O=C1Nc2ccccc2C12Nc1ccccc1-c1nc3ccccc3n12 (configuration not stated)
5% | 2 | -27% | 3.8 | 7 | -2 | CCOC(=O)c1cnc(-n2nc(C)cc2C)nc1Oc1ccc(C#N)cc1

Some of the entries so far, as labelled records:
> CCn1nccc1C(=O)Nc1nccs1
  gsp antag: 1%
  D2 PAM: -11
  gsp agonist: ?
  D2 ag: -2.8
  CtBP-E1A blk: 0
  Six1-Eya2 inh: -2

> Cc1cc(C)nc(-n2ncc3c2CC(C)CC3=O)n1 (configuration not stated)
  gsp antag: 21%
  D2 PAM: -4
  gsp agonist: -12%[15.4 µM]
  D2 ag: -3.2
  CtBP-E1A blk: 5
  Six1-Eya2 inh: -16

> CN(C)CCC(c1ccc(Br)cc1)c1ccccn1 (configuration not stated)
  gsp antag: 5%&4%&-2%
  D2 PAM: -27&-21&-8
  gsp agonist: .
  D2 ag: -1.7&-5.6&-5.0
  CtBP-E1A blk: 5&-1&6
  Six1-Eya2 inh: 1&0&-3

> COCCNC(=O)CCc1c(C)nc2nc(-c3cc(OC)cc(OC)c3)nn2c1C
  gsp antag: -2%
  D2 PAM: -1
  gsp agonist: 13%
  D2 ag: -0.7
  CtBP-E1A blk: -2
  Six1-Eya2 inh: -12
